AID504770: E. coli YBA685 growth inhibition, screen for V. cholerae RctB inhibitors; z-score (test concentration not listed); E. coli YBA685 rctB-dependent plasmid, OD600 growth, 3 h; hits give low values; 130,000 tested, 0.27% active;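 active = z-score under -2 on both plates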;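 note: wells of about 30 µL received 100 nL stock; score is relative to mean and SD of the test wells; the first replicate is given; strong numbers were not always called active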
CapD inh: inhibitors of Bacillus anthracis CapD enzyme. 140,000 tested, 0.23% active. z-score (no concentration beside the values). purified CapD enzyme, fluorescence intensity read-out; hits give low values; some hits fall short of the stated cut. AID 492967;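 active = z-score under -4 in either of two replicates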;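 note: stock transfer was 100 nL into about 40 µL; score is relative to mean and spread of the plate; one replicate is shown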
Numbers without * were called inactive; nt = not tested or not shown; & = joins results of further samples.

Each structure is followed by: AID504770	CapD inh
> Cn1c(=O)c2c(SCC(=O)N3CCCc4ccccc43)nc(-c3cccs3)nc2n(C)c1=O
 : 0.2	0.11
> CC1CN(S(=O)(=O)c2cccc(Cl)c2Cl)CC(C)O1 (stereo not given)
 : nt	-0.87
> O=C(Nc1ccc(F)c(F)c1)c1nc2ncccn2n1
 : -0.35	nt
> COC(=O)CNC(=O)C1CCN(c2nc(C)cc(-c3ccccc3)n2)CC1
 : -0.1	nt
> O=C(O)CC1(O)CC(=O)N(c2ccccc2)C1=O (stereo not given)
 : -1.1	0.18
> CCOC(=O)C1=NN(c2ccccc2)C2(C(=O)c3ccccc3C2=O)C1c1ccc(C)cc1 (stereo not given)
 : 0.7	-2.4
> Cc1cc(-n2c(SCc3cc(=O)n4cc(Br)ccc4n3)nc3n[nH]c(C)c3c2=N)ccc1Cl
 : nt	-0.12
> COc1ccc(CNc2ccccn2)cc1OC
 : -0.45	1.7
> CC(=O)Oc1cc2c(cc1Cl)C1(CC(c3ccccc3)O2)CC(C)(C)NC(=S)N1 (stereo not given)
 : nt	-0.12
> CN(C)CCC(=O)c1ccco1
 : -0.05	-0.21
> CCOC(=O)C1=C(C)NC2=C(C(=O)c3ccccc32)C1c1cccc(OC)c1 (stereo not given)
 : nt	0.3
> COC(=O)N1CCCc2cc(C)ccc21
 : -0.5	7.3
> Cc1ccc(N2C(=O)CC(c3ccc4c(c3)OCO4)C3=C2CC(C)(C)CC3=O)cc1 (stereo not given)
 : 1.4	nt
> COc1ccc(-c2nnc(SCC(=O)Nc3ccc(C)cc3)nc2-c2ccc(OC)cc2)cc1
 : nt	-0.55
> CS(=O)(=O)c1ccc(C(=O)NCCc2ccc(S(N)(=O)=O)cc2)cc1
 : -0.85	nt
> Nn1c(SCC(=O)Nc2ccccc2)nncc1=O
 : -0.75	nt
> O=C1CCC(C(=O)OCC(=O)c2ccc(Cl)cc2)=NN1
 : 0.1	nt
> O=C1CS/C(=N/C(=O)NCC2CCCC(CNC(=O)/N=C3\NC(=O)CS3)C2)N1 (stereo not given)
 : -0.6	nt
> CC(=O)N[C@@H](CCC(=O)O)C(=O)O
 : -0.05	0.54
> O=c1[nH]cnc2sc3c(c12)CCCC3
 : 1.2	0.11&0.26
> O=C(Nc1nc2c(s1)Cc1ccccc1-2)c1ccco1
 : 1.1	0.54
> COc1ccc(C(=O)Nc2ccc3sc(C)nc3c2)cc1
 : nt	0.81
> CN1C=C(c2ccc3ccccc3n2)Cc2ccccc21
 : nt	22
> CN(NC1OC(=O)c2ccccc21)c1ncc(Cl)cc1C(F)(F)F (stereo not given)
 : -0.05	-0.88
> CC(C)(C)N1CSC(=S)N(Cc2ccco2)C1
 : -7.9*	nt
> CC1(C)C2CC=C(/C=C(\C#N)C(N)=O)C1C2 (stereo not given)
 : 0.65	nt
> O=C(c1ccccc1)c1ccc2nc(-c3ccco3)c(-c3ccco3)nc2c1
 : 0.1	nt
> CC(=O)N(CC(=O)Nc1ccc(C)cc1)c1ccccc1
 : 3	-0.78
> Cc1ccc(-c2ccc(/C=N/n3cnnc3)o2)cc1
 : 0.3	2.6
> CC(C)n1c(SCc2ccccc2)nnc1C1CCCN(CC(N)=O)C1 (stereo not given)
 : -0.15	nt

Next part.
Each structure is followed by: AID504770	CapD inh
> O=c1[nH]c(O)c(/C=N/N2CCOCC2)c(=O)[nH]1
 : 0.25	nt
> CSc1nnc(-c2cc(Br)ccc2NC(C)=O)c(=O)[nH]1
 : -0.1	-0.15
> CCOc1cc(C(=O)Oc2cc(=O)oc3ccccc23)cc(OCC)c1OCC
 : -0.4	-0.34
> C=CCn1c(NC)nc2c1c(=O)[nH]c(=O)n2C
 : 2.2	nt
> O=C(O)c1cccc(Cl)c1C(=O)O
 : -0.75	-1.4
> COC(=O)N(c1ccc(OC)cc1)P1(=S)OCCC(C)O1 (stereo not given)
 : 1.5	-0.45
> CN1CCC(N2CCCC(C(N)=O)C2)CC1 (stereo not given)
 : 0.2	0.43
> Cc1cc(-n2c(SCC(=O)Nc3ccc4c(c3)OCCO4)nc3n[nH]c(C)c3c2=N)ccc1Cl
 : nt	1.1
> CN(C)C=Nc1nc2ccccc2nc1Cl
 : 0.5	nt
> COc1ccc(C2C=C(c3ccccc3)NC(=S)S2)cc1OC (stereo not given)
 : 2.2	-0.91
> Cn1c(NCc2cccs2)nc2ccccc21
 : -0.55	-0.91
> COc1ccc(-c2ccc(SC)nn2)cc1OC
 : -0.85	nt
> CCOC(=O)c1sc2ncnc(N3CCCC(C(=O)OCC)C3)c2c1C (stereo not given)
 : nt	9.4
> Cc1[nH]c2c(NC(=O)C(c3ccccc3)c3ccccc3)cccc2c1C
 : nt	-0.24
> COc1cccc(CN2CCC(NC(=O)Cc3nc(-c4ccccc4)sc3C)C2)c1[N+](=O)[O-] (stereo not given)
 : nt	0.84
> Cn1cc(S(=O)(=O)N2CCOCC2)cc1C(=O)N1CCN(CCOc2ccc(Cl)cc2)CC1
 : 0.75	-0.48
> CC(=O)N1CCOc2ccc(S(=O)(=O)N3CCC(C(=O)NCc4ccc(Cl)cc4)CC3)cc21
 : 0.45	-0.36
> N#Cc1ccc(-c2ccc(Cl)cc2)n(Cc2ccccc2Cl)c1=O
 : nt	0.21
> CCC(C)(C)NC(=O)Cc1c[nH]c2ccccc12
 : -0.05	nt
> COc1ccc2c(c1)nc(SCC(C)O)n2C (stereo not given)
 : 0.4	0.99
> Cc1ccc(Cl)cc1NC(=O)COC(=O)Cc1ccc(Cl)cc1
 : -0.35	0.08
> COc1ccccc1/C=C1\C(=O)/C(=C/c2ccccc2OC)C2CCC1N2C
 : -0.3	-2
> Cc1csc2c(SCC(=O)NNC(=O)OCC(C)c3ccccc3)ncnc12 (stereo not given)
 : nt	-0.12
> OC(COCc1ccc(Cl)cc1)CN1CCCCCC1 (stereo not given)
 : 0.25	nt
> O=c1c(C=Nc2cccc(F)c2)c(C(F)(F)F)[nH]n1-c1nc2ccccc2s1
 : nt	0.49
> O=C(NCC(c1ccco1)S(=O)(=O)c1ccc(Cl)cc1)c1ccc2c(c1)OCO2 (stereo not given)
 : -1.2	nt
> CCOC(=O)CSc1nn(C)c(=S)s1
 : 1.2	-0.35
> COc1cc(Nc2nc(SCc3cc(=O)n4cc(Cl)ccc4n3)nc3ccccc23)cc(OC)c1
 : nt	-0.35
> CC(=O)c1c(C)oc2ccc(N(C(=O)c3ccc(Cl)cc3)S(=O)(=O)c3ccc(C)cc3)cc12
 : nt	-0.04
> COc1cc(OC)cc(C(=O)OC(C)C(=O)Nc2ccc(C(N)=O)cc2)c1 (stereo not given)
 : 2.2	nt

7 compounds drawn at random from those above:
Each structure is followed by: AID504770	CapD inh
> COc1cc(OC)cc(C(=O)OC(C)C(=O)Nc2ccc(C(N)=O)cc2)c1 (stereo not given)
 : 2.2	nt
> CC(=O)N1CCOc2ccc(S(=O)(=O)N3CCC(C(=O)NCc4ccc(Cl)cc4)CC3)cc21
 : 0.45	-0.36
> COc1ccc(-c2nnc(SCC(=O)Nc3ccc(C)cc3)nc2-c2ccc(OC)cc2)cc1
 : nt	-0.55
> COc1ccccc1/C=C1\C(=O)/C(=C/c2ccccc2OC)C2CCC1N2C
 : -0.3	-2
> CN(NC1OC(=O)c2ccccc21)c1ncc(Cl)cc1C(F)(F)F (stereo not given)
 : -0.05	-0.88
> Cc1ccc(N2C(=O)CC(c3ccc4c(c3)OCO4)C3=C2CC(C)(C)CC3=O)cc1 (stereo not given)
 : 1.4	nt
> CCOC(=O)C1=NN(c2ccccc2)C2(C(=O)c3ccccc3C2=O)C1c1ccc(C)cc1 (stereo not given)
 : 0.7	-2.4

Continued:
Each structure is followed by: AID504770	CapD inh
> O=C(Nc1cnc2ccccc2c1)N1CCOCC1
 : -0.75	nt
> CC(/C=C1\SC(=S)N(CCC(=O)NC2CCCCC2)C1=O)=C\c1ccccc1
 : 2.6	-0.57
> O=C(c1ccccc1)N1CCN(C(=O)c2cccc(S(=O)(=O)N3CCCC3)c2)CC1
 : -0.2	nt
> CN(C)c1cc(=O)n2c(n1)SCCC2
 : 1.6	0.23
> N#Cc1c(N)sc2c1-c1ccccc1CC2
 : -0.5	0.51
> COc1ccc(C2NC(C(=O)O)Cc3[nH]cnc32)cc1 (stereo not given)
 : -0.15	nt
> CCOC(=O)C1CCN(C(c2cccnc2)c2c(C)[nH]c3ccccc23)CC1 (stereo not given)
 : -0.4	nt
> CCc1cccc(CC)c1NC(=O)CC#N
 : 2.1	-1.2
> NNc1nnc2c(n1)[nH]c1ccccc12
 : -0.75	-1.2
> COC(=O)CNC(=O)c1cc(OC)c(OC)c(OC)c1
 : 0.6	-0.64
> O=C(OCC(=O)N(Cc1ccccc1)C1CCS(=O)(=O)C1)c1ccccc1C(F)(F)F (stereo not given)
 : 2.7	nt
> CSc1nsc(SC)c1C(N)=O
 : nt	-0.12
> CCSc1nnc(-c2cccc(S(=O)(=O)N(C)C)c2)n1-c1cccc(C)c1
 : -0.4	nt
> O=S(=O)(c1cccc2cccnc12)N1CCc2ccccc21
 : 0.5	-0.01
> CCOCCOC(=O)C1=C(C)NC2=C(C(=O)CC(c3ccc(OC)cc3)C2)C1c1ccc(Br)cc1 (stereo not given)
 : nt	36
> CCOC(=O)C1=C(CCl)OC(N)=C(C#N)C1c1ccccc1F (stereo not given)
 : nt	-0.13
> O=C(NCc1cccc(Cl)c1)c1cnc2ccccn2c1=O
 : 0.05	-0.02
> Cc1ccc(NC(=O)CN2C(=O)S/C(=C\c3ccc(C)o3)C2=O)cc1
 : 1.4	-0.03
> COc1cccc(COCC(O)CN2CCC(C(N)=O)CC2)c1 (stereo not given)
 : -0.6	nt
> COc1ccc(C2CC(c3c(-c4ccccc4)c4cc(Br)ccc4[nH]c3=O)=NN2C(C)=O)cc1 (stereo not given)
 : nt	1.6
> O=C(O)c1ccc(/C=N/n2cc(-c3ccccc3)[nH]c2=S)cc1
 : 1.4	nt
> CC(C)(C)c1cc(C(C)(C)C)n(-c2ccc(C(=O)O)cc2)n1
 : 2.6	-0.76
> C=CCOC(=O)C1=C(C)NC(=O)NC1c1cn(-c2ccccc2)nc1-c1ccc(OCC)cc1 (stereo not given)
 : nt	-0.12
> Cn1ccsc1=NC(=O)/C=C/c1ccc(S(=O)(=O)N2CCOCC2)cc1
 : -0.15	nt
> COc1ccc(S(=O)(=O)N2CCc3cc(F)ccc32)cc1
 : nt	0.11
> O=C(Nc1ccccc1)Nc1cc(C2CC2)nn1-c1ccccc1
 : 0.55	0.2
> C#Cc1cccc(NC(=O)c2ccccc2)c1
 : nt	0.09
> COc1ccc(CNC(=O)C(c2cccs2)N(Cc2cccs2)C(=O)Cc2cccs2)cc1 (stereo not given)
 : 0.85	nt
> O=C(O)CCSC1=CCS(=O)(=O)c2ccc(Cl)cc21
 : -0.7	-0.43
> Cc1ccc(SC2=CCS(=O)(=O)C2)cc1
 : 0.15	0.33

The results go on:
Each structure is followed by: AID504770	CapD inh
> CC(C)(N)CN1CCCC1
 : 2	nt
> COc1ccc(-n2nc(C(=O)NCC(=O)N3CCCC3)c3ccccc3c2=O)cc1
 : nt	0.045
> CCOC(=O)C1=C(C)NC2=C(C(=O)c3ccccc32)C1c1ccccc1OC (stereo not given)
 : nt	-0.32
> CON(C)S(=O)(=O)c1cccc(C(=O)Oc2ccc(-n3cnnn3)cc2)c1
 : 0.5	nt
> Cc1ccc(S(=O)(=O)/C(=C\N(C)C)C(=O)c2ccc(Cl)cc2)cc1
 : nt	-0.66
> CCSCCOC(=O)C1=C(C)NC2=C(C(=O)CC(c3ccc(OC)cc3)C2)C1c1cccc([N+](=O)[O-])c1 (stereo not given)
 : nt	-0.05
> Cc1n[nH]c(C)c1S(=O)(=O)N1CCc2ccccc21
 : -0.55	-0.55
> COc1ccc(NC(=O)c2ccc(-n3cncn3)c([N+](=O)[O-])c2)cc1OC
 : nt	-0.2
> C1=C(c2ccccc2)CC(c2ccccc2)=C1
 : 1	86
> Cc1ccc(P(C)(=O)c2ccc(C)cc2)cc1
 : -0.5	0.36
> CCOC(=O)c1cc(C#N)c(Oc2ccc(F)cc2)nc1-c1ccccc1
 : nt	-0.11
> CCOc1cc(/C=C2\SC(N)=NC2=O)ccc1OC(=O)c1ccc(Cl)cc1
 : nt	0.38
> CCc1ccc(Nc2nc(Nc3ccc(OC)c(OC)c3)nc(N3CCOCC3)n2)cc1
 : -0.25	nt
> Cc1ccc(S(=O)(=O)Nc2ccc3oc(C)c(C(=O)OC(C)C)c3c2)c(C)c1
 : nt	0.5
> NC(=O)c1ccc(-c2ncc3c(n2)-c2ccsc2SC3)cc1
 : 0.25	0.8
> CCOC(=O)Cc1sc(Nc2ccccn2)nc1-c1ccccc1
 : -0.15	0.94
> CC(C)(C)n1nc(C2CC2)cc1NC(=O)c1ccccc1
 : -0.75	0.56
> O=C(C1CC2CCC1C2)N1CCN(c2ccc3c(c2)OCO3)CC1 (stereo not given)
 : -0.6	0.16
> COc1ccc(-c2noc(=O)n2CCCC#N)cc1OC
 : 1.3	nt
> COc1ccc(-c2cn3c4c(=O)n(C)c(=O)n(C)c4nc3n2-c2cccc(C)c2)cc1
 : nt	-0.82
> CCN(CC)CCn1c(NCc2ccc(C)o2)nc2ccccc21
 : -0.2	0.66
> CC(C)Nc1nn(CN2CCN(C(=O)c3ccccc3)CC2)c(=S)s1
 : -0.5	nt
> C/C=C/c1c(C)nc2sc(C#N)c(N)c2c1C
 : -0.45	38
> CCc1ccn2cc(-c3ccc(-c4ccccn4)s3)nc2c1
 : -0.45	89
> O=C(NC1CCCC1)C1CCCN(S(=O)(=O)c2ccc3[nH]c(=O)ccc3c2)C1 (stereo not given)
 : -1	-1.9
> O=C1CC(c2ccccc2)CC(O)=C1C=NCc1cccnc1 (stereo not given)
 : -0.4	0.52
> CC(C)n1c(SCC(=O)N(Cc2ccccc2)C(C)(C)C)nc2c1c(=O)n(C)c(=O)n2C
 : -0.5	nt
> CCOC(=O)C1=C(N)n2c(s/c(=C/c3ccc(C(C)C)cc3)c2=O)=C(C(=O)OCC)C1c1ccc(C(C)C)cc1 (stereo not given)
 : nt	-0.21
> CC1=C(C(=O)Nc2ccccc2C(=O)NCc2ccc3c(c2)OCO3)SCCO1
 : 1.8	-0.88

Compound activity deposited in PubChem by ICCB-Longwood Screening Facility, Harvard Medical School.

Not all compounds are listed; rates above refer to the full screens.
